Assay outcomes deposited in PubChem by National Center for Advancing Translational Sciences (NCATS).
nsP2pro inh: blocks chikungunya virus nsP2 protease peptide cleavage. Q8JUX6. 31,000 compounds, 1.1% hits. FRET peptide cleavage, nsP2pro, fluorescence 1 h. AID 1964107. Potency, µM (series often up to 24.9 µM), for the others: top-dose activity change, negative = inhibition, hits mostly inhibitors; active means well fitted inhibition curve with a large enough effect; inconclusive means small, poorly fitted or top-dose-only effect; inactive means no such curve, though single readings can be large or run the other way; further: nearly all actives have a fitted effect of over 60% in size; a reference inhibitor and vehicle were the controls
Target sequence (Q8JUX6 whole entry, looked up): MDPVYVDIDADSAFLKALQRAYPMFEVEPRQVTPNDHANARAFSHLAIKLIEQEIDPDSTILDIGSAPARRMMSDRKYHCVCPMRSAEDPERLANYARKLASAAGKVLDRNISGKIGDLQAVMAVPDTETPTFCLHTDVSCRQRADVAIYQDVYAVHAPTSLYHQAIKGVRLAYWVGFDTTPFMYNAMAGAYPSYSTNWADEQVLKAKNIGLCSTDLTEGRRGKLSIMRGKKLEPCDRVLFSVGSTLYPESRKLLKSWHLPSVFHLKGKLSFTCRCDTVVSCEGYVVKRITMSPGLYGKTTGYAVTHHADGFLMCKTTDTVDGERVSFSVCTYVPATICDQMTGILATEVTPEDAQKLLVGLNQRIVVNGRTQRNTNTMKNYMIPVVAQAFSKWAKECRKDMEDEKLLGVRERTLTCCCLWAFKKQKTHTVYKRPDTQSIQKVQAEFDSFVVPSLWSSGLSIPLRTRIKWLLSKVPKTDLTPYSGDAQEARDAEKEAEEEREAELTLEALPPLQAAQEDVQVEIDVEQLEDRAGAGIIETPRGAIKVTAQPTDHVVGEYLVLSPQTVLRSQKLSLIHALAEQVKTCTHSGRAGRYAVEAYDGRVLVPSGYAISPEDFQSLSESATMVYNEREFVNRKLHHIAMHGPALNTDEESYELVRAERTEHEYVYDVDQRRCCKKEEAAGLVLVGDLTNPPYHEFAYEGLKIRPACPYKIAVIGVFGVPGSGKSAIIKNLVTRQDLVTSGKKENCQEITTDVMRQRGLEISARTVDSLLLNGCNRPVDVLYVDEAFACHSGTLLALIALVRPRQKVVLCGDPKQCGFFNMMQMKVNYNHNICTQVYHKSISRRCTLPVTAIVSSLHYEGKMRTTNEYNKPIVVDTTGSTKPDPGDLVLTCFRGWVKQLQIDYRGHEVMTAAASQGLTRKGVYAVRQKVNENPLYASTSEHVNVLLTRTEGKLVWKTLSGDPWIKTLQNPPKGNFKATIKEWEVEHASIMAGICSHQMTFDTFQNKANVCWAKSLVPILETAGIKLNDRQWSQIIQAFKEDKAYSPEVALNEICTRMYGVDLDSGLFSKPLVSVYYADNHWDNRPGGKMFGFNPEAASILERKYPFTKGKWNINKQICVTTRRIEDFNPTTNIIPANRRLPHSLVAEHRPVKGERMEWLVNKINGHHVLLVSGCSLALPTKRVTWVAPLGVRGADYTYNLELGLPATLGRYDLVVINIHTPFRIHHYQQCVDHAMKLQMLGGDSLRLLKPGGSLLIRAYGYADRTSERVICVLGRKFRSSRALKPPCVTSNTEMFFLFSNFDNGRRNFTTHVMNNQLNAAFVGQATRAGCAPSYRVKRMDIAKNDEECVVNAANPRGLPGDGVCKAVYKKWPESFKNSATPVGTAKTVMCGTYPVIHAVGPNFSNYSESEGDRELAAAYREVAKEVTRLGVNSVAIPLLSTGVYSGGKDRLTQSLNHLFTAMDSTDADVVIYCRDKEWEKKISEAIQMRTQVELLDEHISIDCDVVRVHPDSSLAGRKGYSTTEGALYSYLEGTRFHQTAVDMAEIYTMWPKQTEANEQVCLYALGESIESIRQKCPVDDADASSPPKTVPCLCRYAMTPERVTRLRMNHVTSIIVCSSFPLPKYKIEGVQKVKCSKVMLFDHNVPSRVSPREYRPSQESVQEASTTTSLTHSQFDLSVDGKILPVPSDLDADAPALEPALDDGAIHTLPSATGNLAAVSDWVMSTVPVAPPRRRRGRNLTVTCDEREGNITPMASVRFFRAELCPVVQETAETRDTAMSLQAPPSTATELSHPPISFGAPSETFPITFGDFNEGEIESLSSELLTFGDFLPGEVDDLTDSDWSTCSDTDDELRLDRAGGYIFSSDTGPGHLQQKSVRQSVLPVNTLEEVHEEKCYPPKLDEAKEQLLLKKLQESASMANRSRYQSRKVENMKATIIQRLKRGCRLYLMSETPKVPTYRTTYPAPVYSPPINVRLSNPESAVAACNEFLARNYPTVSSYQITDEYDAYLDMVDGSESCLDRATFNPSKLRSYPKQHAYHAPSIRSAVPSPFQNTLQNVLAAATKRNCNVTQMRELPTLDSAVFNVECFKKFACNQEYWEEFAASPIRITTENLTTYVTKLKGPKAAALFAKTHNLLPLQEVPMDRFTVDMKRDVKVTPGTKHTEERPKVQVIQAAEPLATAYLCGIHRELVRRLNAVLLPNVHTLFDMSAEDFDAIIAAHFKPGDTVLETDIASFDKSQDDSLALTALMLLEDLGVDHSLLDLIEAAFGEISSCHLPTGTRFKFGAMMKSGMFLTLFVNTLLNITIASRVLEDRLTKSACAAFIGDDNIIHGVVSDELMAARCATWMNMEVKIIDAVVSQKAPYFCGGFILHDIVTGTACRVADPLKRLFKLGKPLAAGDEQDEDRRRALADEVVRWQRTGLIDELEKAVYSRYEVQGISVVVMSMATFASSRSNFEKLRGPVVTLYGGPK
* marks the source's active call; other numbers are inactive results; i = inactive; ? = inconclusive; & = joins results of further samples; [ ] = dose if it differs, or a comment. On the % scale 0 is the no-effect control and ±100 the full control effect; potency means the concentration at half of the fitted maximal effect. Some of the compounds tested; count on the stated rates, not on these rows.

SMILES | nsP2pro inh
O=C(O[C@H]1[C@@H]2C=CO[C@@H](O[C@@H]3O[C@H](CO)[C@@H](O)[C@H](O)[C@H]3O)[C@@H]2[C@@]2(CO)O[C@@H]12)c1ccccc1 | 20%[10 µM]
N#Cc1ccc(NCCNCC(=O)N2CCCC2C#N)nc1 (centres undefined) | -16%
O=C1CCCC2=C1C1(CCSC1)N=C(Nc1nc3ccccc3o1)N2 (centres undefined) | 3%
COc1cc2c(Nc3ccc(NC(=O)c4ccccc4)cc3)ncnc2cc1OCCCN1CCOCC1 | 223%[activator]
CN(CC(=O)Nc1ccc(F)cc1F)S(=O)(=O)c1cccc2nsnc12 | -22%
CN(C1CCc2nn(CC3CC3)c(=O)n2CC1)S(=O)(=O)c1ccc(C#N)cc1 (centres undefined) | 0%
COc1ccc(Cn2ncc3c4sc(C)cc4n(C)c3c2=O)cc1 | 3%
O=C(Nc1nc(-c2ccccc2)cs1)c1ccncc1NS(=O)(=O)c1cccnc1 | i
NC(=O)CN1C(=O)CO[C@H]2CN(Cc3ccc(Cl)cc3)C[C@H]21 | -7%[39.2 µM]
CCC1(C(=O)NCCCN2CCCC2=O)CCCCC(=O)N1 (centres undefined) | 4%
CCCCCCCCCCCCCCCC(=O)NCCO | -5%
Cc1cc(C)cc(NC(=O)Cc2ccc(OC(C)(C)C(=O)O)cc2)c1 | -28%&-8%
c1ccc2cc(-c3nc(C4CCOC4)no3)ncc2c1 (centres undefined) | 4%
Cc1ccc(OC(C)C(=O)N2CCN(CCc3ccccn3)CC2)cc1C (centres undefined) | -21%
COC(=O)C1(O)C(OC(C)=O)CCC2C3(CC(c4ccoc4)OC3=O)C(C)=CCC21C(=O)OC (centres undefined) | 1.9µM*
COCCc1noc(CNC(=O)c2ccc(-c3ccccc3Cl)o2)n1 | ?
Cc1c(Cn2c(C)nc3c(C(=O)O)cc(N4CCOCC4)cc32)cccc1C(F)(F)F | 54%
O=C1c2ccccc2C(=O)N1c1cccc2ccncc12 | 2%
Cc1cc(=O)[nH]c2nnc(SCc3ccc(Cl)cc3Cl)n12 | -15%
Cc1ccc(Cl)cc1NC(=O)Cn1c(=O)n(Cc2ccccc2)c(=O)c2oc3ccccc3c21 | -18%
Cc1ccccc1-c1[nH]nc2ncc(-c3c(C)noc3C)nc12 | 4%[39.2 µM]
Cc1cc(C)n(CCc2c(-c3ccccc3)ncn2C(C)CCCC(C)(C)O)n1 (centres undefined) | i
Cn1nnnc1SCCCNCc1ccc(-c2ccc(Br)cc2)o1 | ?
COc1ccc(C2CC(=O)c3c(O)cc(OC4OC(COC5OC(C)C(O)C(O)C5O)C(O)C(O)C4O)cc3O2)cc1O (centres undefined) | -15%
Cn1nnnc1SCCCNCc1cccc(OCc2ccc(Cl)cc2)c1 | -2%
CCc1oc2ccccc2c1C(=O)c1cc(Br)c(O)c(Br)c1 | -2%&57%
CCCCC[C@@H](O)CC[C@H]1[C@@H]2Cc3cccc(OCC(=O)O)c3C[C@@H]2C[C@@H]1O | -2%
CN1CCCCC(CC(=O)NCc2cc(F)ccc2F)C1=O (centres undefined) | -3%
O=C(c1cn(CCC2CCCCN2)nn1)N1CCc2nc[nH]c(=O)c2CC1 (centres undefined) | 5%
CCNC(=O)OC1CCN(c2nncc3cc(OC)c(OC)cc23)CC1 | -2%
CCCc1ncncc1C(=O)N1CCc2onc(-c3ccccc3F)c2C1 | -2%
CN(C)c1ccc(-c2nc3ccccc3s2)cc1 | i
CN(C)c1cccc(-c2c3c(=O)n(-c4ccccc4Cl)[nH]c3cc(=O)n2C)c1 | ?
O=c1ccc(NS(=O)(=O)c2ccccc2)c2n1C[C@H]1C[C@@H]2CN(S(=O)(=O)c2ccccc2)C1 | -22%
Cn1nccc1CN1CCCC2(COc3ccccc3C(=O)N2)C1 (centres undefined) | i
COc1cccc(CN2CCc3nc(N4CCN(C)CC4)ncc3C2)c1 | -8%
CNC(=O)N1CCC(C2CCN(C(=O)Cc3c(F)cccc3Cl)C2)CC1 (centres undefined) | -4%
C=C1CC[C@H](O)C/C1=C\C=C1/CCC[C@]2(C)[C@@H]([C@H](C)CCCC(C)C)CC[C@@H]12 | -14%
COc1cc(CCNCc2ccccc2O)c(OC)cc1C#N | -14%
COC(=O)c1ccn(-c2nc(-c3ccc(Cl)cc3)cc(C(F)(F)F)n2)n1 | -14%
COc1ccc(C2COc3cc(O)ccc3C2)c(O)c1 (centres undefined) | 7%
CC(NC(=O)c1cc(-c2ccc(Cl)cc2)on1)c1ccccc1 (centres undefined) | -12%
CC1CCC/C=C/C(=O)c2c(O)cc(O)cc2CC(=O)O1 (centres undefined) | 0%
CCCOc1ccc(C2C(=O)N(C3CCCCC3)CC(=O)N2CCc2ccccc2)cc1OC (centres undefined) | -24%
CC(=O)NC(C)c1cc(F)c2cccnc2c1O (centres undefined) | -3%
COc1ccc(C)c2sc(N(Cc3cccnc3)C(=O)C3CCCCC3)nc12 | -37%
O=C(O)/C=C/c1ccc2occc2c1O[C@@H]1O[C@H](CO)[C@@H](O)[C@H](O)[C@H]1O | -12%
CCOC(=O)c1scc(-c2ccc(C)cc2)c1S(=O)(=O)Nc1cc(Cl)ccc1OC | -10%
CCOc1ccc(S(=O)(=O)N(CC(=O)NCCSCc2ccccc2)c2ccccc2)cc1 | -20%
COCC(=O)N1CCCCC1c1nc(-c2ccccc2)n[nH]1 (centres undefined) | -1%
(more compounds)
SMILES | nsP2pro inh
CCc1nc(-c2c3n(c(=O)n(CCOc4ccc(F)cc4)c2=O)CCCC3)no1 | i
CCC(C)(C)c1ccc(CC(C)CN2C[C@@H](C)O[C@@H](C)C2)cc1 (some centres undefined) | 15%
COc1ccc(CCNC(=O)Cn2c(=O)cc(C(F)(F)F)c3c(C)nn(C)c32)c(OC)c1 | -11%
O=C(Nc1ccc(F)c(Cl)c1)c1cnc(-c2ccccc2)nc1-c1ccncc1 | i
Cc1ccc(C)c(CNC(=O)c2ccc3c(c2)nc2n3CCOC2)c1 | 7%
Cc1cccc(CNC(=O)c2ccc(Cn3c(SCc4cccc(F)c4)nc4cccnc43)cc2)c1 | 17%
Fc1ccc(-n2cc(CCCCN3CCC4(CC3)OCc3ccccc34)c3ccccc32)cc1 | 52%[activator]
CC(C)(C)C1CCc2c(sc3nnn(CCOc4ccccc4)c(=O)c23)C1 (centres undefined) | -14%
Cc1ccc(NC(=O)c2cccc(NC(=O)N3CCSc4ncccc43)c2)cc1Cl | -32%
O=C(Nc1ccc(S(=O)(=O)N2CCC(c3nc4ccccc4s3)CC2)cc1)c1ccc(F)cc1 | -12%
O=C(Nc1ncc([N+](=O)[O-])s1)c1ccccc1O | 19%&60%
CCNC(=O)[C@@H]1C[C@H](NC(=O)c2ccco2)CN1C(=O)Cn1nccc1C | -14%
Cc1cccc(C(=O)Nc2nnc(S(=O)(=O)N(C)c3ccccc3C)s2)c1 | -3%
CCCS(=O)(=O)N1CCC(c2noc(-c3ccccc3)n2)C1 (centres undefined) | i
O=C(c1cccnc1)N1CCn2cc(C(=O)N3CCOCC3)nc2C1 | -10%
CC(NC(=O)CCn1c(=O)c2cccn2c2ccc(F)cc21)c1ccccc1 (centres undefined) | -25%
c1ccc(OCc2nnc3ccc(-c4ccccc4)nn23)cc1 | i
Cc1c(CN2CCCC23CCN(c2ccc(C(F)(F)F)cn2)CC3)cc(C#N)n1C | i
O=C(c1cc(-c2ccco2)[nH]n1)N1CCSC(c2cc(F)ccc2F)CC1 (centres undefined) | 3.2µM*
CC1CCCCN1CCCNC(=O)Cn1ncc2c3ccccc3n(Cc3ccccc3F)c2c1=O (centres undefined) | 8%

Part of the list above, field by field:
> O=C(Nc1ncc([N+](=O)[O-])s1)c1ccccc1O
- nsP2pro inh: 19%&60%
> Cc1c(CN2CCCC23CCN(c2ccc(C(F)(F)F)cn2)CC3)cc(C#N)n1C
- nsP2pro inh: i

The list goes on:
SMILES | nsP2pro inh
COc1cccc(CN2CCCC(c3nc(-c4cccnc4)no3)CCNC(=O)CC2)n1 (centres undefined) | i
COc1cc(O)c(C(CC(=O)N2CCC(Cc3ccccc3)CC2)c2ccc3c(c2)OCO3)c(OC)c1 (centres undefined) | -8%[39.2 µM]
O=[S+]([O-])(c1ccc2c(c1)OCCO2)N1CCN([S+](=O)([O-])c2ccc(F)cc2Br)CC1 | -6%
O=C(C1COc2ccccc2O1)N1CCN(c2nc3c(F)cccc3s2)CC1 (centres undefined) | -18%
O=C(Nc1ccc(Br)c(Br)c1)Nc1nnc(-c2cccnc2)s1 | -1%
CC(C)CCN1CCC(N2CCN(C(=O)c3ccc(Br)o3)CC2)C1=O (centres undefined) | -21%
CCOc1ccc2nc(N3CCCC(C(=O)NCCc4ccc(SC)cc4)C3)sc2c1 (centres undefined) | -4%
CCOC(=O)c1c(NC(=O)/C=C/c2ccc(C)cc2)sc2c1CCCC2 | -20%
CC(C)c1ccc2c(c1)C(O)CC1C(C)(C(=O)O)CCCC21C (centres undefined) | -2%
COc1ccccc1OCCNC(=O)[C@]12CCCC[C@@H]1N(C)C(=O)CC2 | -5%
Cc1cc(C)n2ncc(C(=O)NC3CCC(C(C)(C)C)CC3)c2n1 (centres undefined) | -5%&-6%
O=C(NCC1(COc2ccc(C(F)(F)F)cn2)C[C@@H](O)[C@@H](O)C1)c1cnccn1 (some centres undefined) | i
Cc1cccc(=O)n1CCC(=O)NCc1cc2n(n1)CCN(C(=O)N(C)C)C2 | -2%
COc1ccccc1CNC(=O)C[C@@H]1[C@H](O)CCC2[C@](C)(CO)[C@H](OC(=O)NC(C)C)CC[C@]21C (some centres undefined) | 4%
COCCOC1CCN(C(=O)c2[nH]nc3c2COc2ccccc2-3)CC1 | -1%
N=c1c2c(ncn1-c1ccccc1)Oc1ccc3ccccc3c1C2c1ccc2c(c1)OCCO2 (centres undefined) | -3%
O=C(CCc1ccccc1)N(Cc1cccnc1)c1nc2ccc(F)cc2s1 | 10%
N#Cc1c(-c2ccc(Cl)c([N+](=O)[O-])c2)no[n+]1[O-] | ?
COc1cccc(S(=O)(=O)NC2CCN(C#N)C2)c1 (centres undefined) | -13%
COc1cc(C[C@H]2COC(=O)[C@@H]2Cc2ccc(O)c(OC)c2)ccc1O | 32%
COc1ccc2cc3cc(C(=O)Nc4ccccc4C)oc3nc2c1 | -13%
CC(C)[C@@H]1CN(C(=O)CCn2ccc(=O)[nH]c2=O)C[C@H]1NC(=O)N(C)C | 0%
O=C(Nc1ccc2c(c1)OCCO2)N1CCC(Cc2nc(-c3ccncc3)n[nH]2)C1 (centres undefined) | -9%
CN1CCN(C(=O)CN[C@@H]2C[C@H]2c2ccc(OCc3ccccc3)cc2)CC1 | -10%
C[C@@H](NS(=O)(=O)c1ccc(Cl)cc1)c1onc(-c2ccc(F)cc2)c1C(=O)O | 0%[39.2 µM]
O=C(c1ccc2c(c1)N(Cc1ccccc1F)C(=O)c1ccccc1S2(=O)=O)N1CCOCC1 | -12%
COCC(=O)N[C@H]1C[C@@H](CO)N(Cc2sccc2C)C1 | -20%
COc1ccc(C(=O)N2CCC23Cc2ccccc2NC3=O)cc1 (centres undefined) | -38%[39.2 µM]
COc1ccc2c(c1)CC(C(=O)NCCN1CCN(c3cccc(C)c3C)CC1)CO2 (centres undefined) | -5%
c1ccc(CNc2ccc(N3CCOCC3)cc2)cc1 | -17%
CN1C(=O)C[C@@H](C(=O)N[C@@H](Cc2cnc[nH]2)C(=O)N2CCC[C@H]2C(N)=O)NC1=O | -5%
CC(C)(C)CC(=O)N1C[C@@H]2C[C@H](C1)c1ccc(NC(=O)c3ccco3)c(=O)n1C2 | ?
COc1ccc(NC(=O)C(c2ccc(OC)cc2)N(C)C(=O)Cc2cccs2)cc1 (centres undefined) | -5%
Cn1nnnc1Sc1ncnc2scc(-c3cccc4ccccc34)c12 | 4%
CSc1ccc(CNC(=O)CN2C(=O)C3CCCCN3c3ccc(C(=O)N4CCCC4)cc32)cc1 (centres undefined) | ?
CO[C@@H](COC(N)=O)C1=C(N2CC2)C(=O)C(C)=C(N2CC2)C1=O | -18%
CN1C[C@@H](NC(=O)c2ccc(C#N)cc2)C[C@H]1c1nc(Cc2ccccc2)no1 | i
COc1cccc(COC2CN(C(=O)CCn3nccc3C)CC(=O)N(Cc3ccccn3)C2)c1 (centres undefined) | -12%

Among those listed so far, 14 have a Cl atom.
SMILES | nsP2pro inh
NC(=O)CN1C(=O)CO[C@H]2CN(Cc3ccc(Cl)cc3)C[C@H]21 | -7%[39.2 µM]
COCCc1noc(CNC(=O)c2ccc(-c3ccccc3Cl)o2)n1 | ?
Cc1cc(=O)[nH]c2nnc(SCc3ccc(Cl)cc3Cl)n12 | -15%
Cc1ccc(Cl)cc1NC(=O)Cn1c(=O)n(Cc2ccccc2)c(=O)c2oc3ccccc3c21 | -18%
Cn1nnnc1SCCCNCc1cccc(OCc2ccc(Cl)cc2)c1 | -2%
CN(C)c1cccc(-c2c3c(=O)n(-c4ccccc4Cl)[nH]c3cc(=O)n2C)c1 | ?
CNC(=O)N1CCC(C2CCN(C(=O)Cc3c(F)cccc3Cl)C2)CC1 (centres undefined) | -4%
COC(=O)c1ccn(-c2nc(-c3ccc(Cl)cc3)cc(C(F)(F)F)n2)n1 | -14%
CC(NC(=O)c1cc(-c2ccc(Cl)cc2)on1)c1ccccc1 (centres undefined) | -12%
CCOC(=O)c1scc(-c2ccc(C)cc2)c1S(=O)(=O)Nc1cc(Cl)ccc1OC | -10%
O=C(Nc1ccc(F)c(Cl)c1)c1cnc(-c2ccccc2)nc1-c1ccncc1 | i
Cc1ccc(NC(=O)c2cccc(NC(=O)N3CCSc4ncccc43)c2)cc1Cl | -32%
N#Cc1c(-c2ccc(Cl)c([N+](=O)[O-])c2)no[n+]1[O-] | ?
C[C@@H](NS(=O)(=O)c1ccc(Cl)cc1)c1onc(-c2ccc(F)cc2)c1C(=O)O | 0%[39.2 µM]
